FGF22 binding: FGF22 (human) thermal shift binding. hit rate 1.5% among 340,000. Q9HCT0. recombinant FGF22 thermal shift, SYPRO orange fluorescence; percent of sucrose octasulfate shift, DMSO zero. calls only at 9.99 µM;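 active = melting point raised past a set limit in the mean and every replicate; three in four hits are not shown here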
Target sequence (Q9HCT0 whole entry, looked up): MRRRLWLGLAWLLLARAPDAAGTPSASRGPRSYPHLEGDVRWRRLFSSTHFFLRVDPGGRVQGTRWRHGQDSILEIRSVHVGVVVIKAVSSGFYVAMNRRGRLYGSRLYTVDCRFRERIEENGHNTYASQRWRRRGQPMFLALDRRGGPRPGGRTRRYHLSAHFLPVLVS
Ecoli rRNA inh: selective bacterial rRNA inhibition in E. coli; AID 720706; hit rate 1.6% among 350,000; GFP signal change (wild-type ribosome), % (test concentration not listed); E. coli WT GFP vs humanized-ribosome RFP mutants, fluorescence, 24 h; stronger effect = lower value; DMSO median 0, no signal -100;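 active = significant combined selectivity score with lowered wild-type GFP, culture density cut under 30%, mutant RFP and density less affected; inactive = any of these conditions unmet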; also: one replicate is shown; some compounds called inactive have numbers as strong as hits
Ecoli rRNA inh OD600: also measured in Ecoli rRNA inh; calls as there; OD600 change, %; measured here: OD600 growth;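 optical density of the mix in the first replicate; 0 = DMSO median and -100 = no signal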
Ecoli rRNA inh RFP: second read-out of Ecoli rRNA inh, no call of its own (marks repeat the call); RFP signal change, %; measured here: RFP humanized mutant strains;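 first replicate; 0 = DMSO median and -100 = no signal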
An asterisk follows results filed as active; i = inactive; x = no result given; & = joins results of further samples. These rows are one share of the data. The share of hits here may be higher or lower than overall.

item | canonical_smiles | FGF22 binding | Ecoli rRNA inh
1 | C[C@H]1CN([C@@H](C)CO)C(=O)c2cc(NC(=O)Cn3cnnn3)ccc2O[C@@H]1CN(C)S(=O)(=O)c1ccccc1 | i | 3
2 | COCC(=O)N1C[C@H](C)[C@H](OC)CN(C)C(=O)c2cc(NC(=O)c3ccccc3)ccc2OC[C@H]1C | i | 1
3 | CCNC(=O)C[C@H]1CC[C@H]2[C@@H](COc3ccc(NS(=O)(=O)c4ccccc4C)cc3C(=O)N2C)O1 | i | -2
4 | Cc1noc(C)c1NC(=O)Nc1cccc2c1O[C@H](CN(C)S(=O)(=O)c1ccc(Cl)cc1)[C@@H](C)CN([C@@H](C)CO)C2=O | i | -2
5 | O=C(C1CC1)N1CC2(C1)[C@H](c1ccccc1)[C@H](CO)N2C(=O)c1cccnc1 | i | 2
6 | COCC(=O)N1CC2(CCN(Cc3ccccc3)CC2)c2c(n(C)c3cc(OC)ccc23)[C@@H]1CO | i | 0
7 | CCc1cc2c(nc1CC)CCCN2C | x | 16
8 | CN(C)C(=O)c1ccc(-c2ccc(C3[C@@H]4CN(S(=O)(=O)c5ccccc5F)C[C@H]3N4)cc2)cc1 (stereo partly drawn) | i | -2
9 | CC(C)NC(=O)Nc1ccc2c(c1)C(=O)N([C@H](C)CO)C[C@H](C)[C@H](CN(C)Cc1ccc(C(F)(F)F)cc1)OCCCC[C@@H](C)O2 | i | 2
10 | Cc1ccc(S(=O)(=O)Nc2cccc3c2O[C@H](CN(C)C(=O)Nc2c(C)noc2C)[C@@H](C)CN([C@H](C)CO)C3=O)cc1 | i | 2
11 | C[C@@H]1CN([C@H](C)CO)C(=O)c2cccc(NC(=O)c3nc4ccccc4s3)c2O[C@H]1CN(C)Cc1ccc(C(=O)O)cc1 | i | 0
12 | C[C@@H]1CN([C@@H](C)CO)S(=O)(=O)c2ccc(-c3ccccc3F)cc2O[C@H]1CN(C)Cc1cccnc1 | i | -45

item | Ecoli rRNA inh OD600 | Ecoli rRNA inh RFP
1 | 12 | -0.2
2 | -1 | -0.6
3 | 0 | -2.7
4 | -3 | -1.5
5 | 6 | -1.8
6 | 16 | -2.1
7 | 4 | 1.2
8 | -2 | -1.3
9 | -1 | -0.2
10 | 6 | -3.5
11 | -7 | -0.1
12 | -58 | 1.4

Part of the list above, set out differently:
nr	structure	FGF22 binding	Ecoli rRNA inh	Ecoli rRNA inh OD600	Ecoli rRNA inh RFP
1	C[C@H]1CN([C@@H](C)CO)C(=O)c2cc(NC(=O)Cn3cnnn3)ccc2O[C@@H]1CN(C)S(=O)(=O)c1ccccc1	i	3	12	-0.2
2	COCC(=O)N1C[C@H](C)[C@H](OC)CN(C)C(=O)c2cc(NC(=O)c3ccccc3)ccc2OC[C@H]1C	i	1	-1	-0.6
3	CCNC(=O)C[C@H]1CC[C@H]2[C@@H](COc3ccc(NS(=O)(=O)c4ccccc4C)cc3C(=O)N2C)O1	i	-2	0	-2.7
4	Cc1noc(C)c1NC(=O)Nc1cccc2c1O[C@H](CN(C)S(=O)(=O)c1ccc(Cl)cc1)[C@@H](C)CN([C@@H](C)CO)C2=O	i	-2	-3	-1.5
5	O=C(C1CC1)N1CC2(C1)[C@H](c1ccccc1)[C@H](CO)N2C(=O)c1cccnc1	i	2	6	-1.8
6	COCC(=O)N1CC2(CCN(Cc3ccccc3)CC2)c2c(n(C)c3cc(OC)ccc23)[C@@H]1CO	i	0	16	-2.1
7	CCc1cc2c(nc1CC)CCCN2C	x	16	4	1.2
8	CN(C)C(=O)c1ccc(-c2ccc(C3[C@@H]4CN(S(=O)(=O)c5ccccc5F)C[C@H]3N4)cc2)cc1 (stereo partly drawn)	i	-2	-2	-1.3
9	CC(C)NC(=O)Nc1ccc2c(c1)C(=O)N([C@H](C)CO)C[C@H](C)[C@H](CN(C)Cc1ccc(C(F)(F)F)cc1)OCCCC[C@@H](C)O2	i	2	-1	-0.2
10	Cc1ccc(S(=O)(=O)Nc2cccc3c2O[C@H](CN(C)C(=O)Nc2c(C)noc2C)[C@@H](C)CN([C@H](C)CO)C3=O)cc1	i	2	6	-3.5
11	C[C@@H]1CN([C@H](C)CO)C(=O)c2cccc(NC(=O)c3nc4ccccc4s3)c2O[C@H]1CN(C)Cc1ccc(C(=O)O)cc1	i	0	-7	-0.1
12	C[C@@H]1CN([C@@H](C)CO)S(=O)(=O)c2ccc(-c3ccccc3F)cc2O[C@H]1CN(C)Cc1cccnc1	i	-45	-58	1.4

Reformatted in markdown: part of the list above.
| item | molecule | FGF22 binding | Ecoli rRNA inh | Ecoli rRNA inh OD600 | Ecoli rRNA inh RFP |
| --- | --- | --- | --- | --- | --- |
| 4 | Cc1noc(C)c1NC(=O)Nc1cccc2c1O[C@H](CN(C)S(=O)(=O)c1ccc(Cl)cc1)[C@@H](C)CN([C@@H](C)CO)C2=O | i | -2 | -3 | -1.5 |
| 5 | O=C(C1CC1)N1CC2(C1)[C@H](c1ccccc1)[C@H](CO)N2C(=O)c1cccnc1 | i | 2 | 6 | -1.8 |

Later entries
item | canonical_smiles | FGF22 binding | Ecoli rRNA inh
13 | C[C@@H]1CN([C@@H](C)CO)C(=O)c2c(c3ccccc3n2C)-c2ccccc2CO[C@@H]1CN(C)S(=O)(=O)c1ccc(C#N)cc1 | i | 0
14 | C[C@@H]1CN([C@@H](C)CO)C(=O)c2cc(NC(=O)Nc3cccc4ccccc34)ccc2O[C@@H]1CN(C)Cc1ccc(Cl)c(Cl)c1 | i | 5
15 | COc1ccc(C#Cc2cnc3c(c2)C(=O)N([C@H](C)CO)C[C@@H](C)[C@@H](CN(C)C(=O)CC2CC2)O3)cc1 | i | -5
16 | C[C@H]1CN([C@@H](C)CO)C(=O)Cc2cc(NS(=O)(=O)c3cn(C)cn3)ccc2O[C@H]1CN(C)S(=O)(=O)c1ccccc1 | i | 2
17 | O=C(C[C@H]1C=C[C@@H](NC(=O)c2ccccc2)[C@H](CO)O1)Nc1ccc(-c2ccccc2)cc1 | i | -4
18 | C[C@H]1CN([C@@H](C)CO)C(=O)Cc2cc(NC(=O)Nc3cccc4ccccc34)ccc2O[C@H]1CN(C)S(=O)(=O)c1cn(C)cn1 | i | 2
19 | CN(C)CC#Cc1ccc([C@H]2[C@@H](CO)N3CCCCN(C(=O)Nc4ccccc4F)C[C@H]23)cc1 | i | 0
20 | Cc1noc(C)c1NC(=O)N(C)C[C@@H]1OCCCC[C@@H](C)Oc2ccc(NC(=O)c3ccncc3)cc2C(=O)N([C@@H](C)CO)C[C@H]1C | i | 2
21 | C[C@H](CO)N1C[C@H](C)[C@H](CN(C)Cc2ccc(-c3ccccc3)cc2)Oc2ccc(NC(=O)Cn3cnnn3)cc2CC1=O | i | 1
22 | CN1C(=O)c2cc(NC(=O)C3CCOCC3)ccc2OC[C@@H]2O[C@H](CC(=O)NCc3ccc4c(c3)OCO4)CC[C@H]21 | i | 4
23 | C[C@H](CO)N1C[C@H](C)[C@@H](CN(C)C(=O)Nc2cccc(C(F)(F)F)c2)OCc2cn(nn2)CCCC1=O | i | -3&-2
24 | Cc1noc(C)c1NC(=O)Nc1ccc2c(c1)CC(=O)N([C@@H](C)CO)C[C@H](C)[C@@H](CN(C)S(=O)(=O)c1ccc(F)cc1)O2 | i | 3

item | Ecoli rRNA inh OD600 | Ecoli rRNA inh RFP
13 | 0 | -4.2
14 | 7 | 0.0
15 | -5 | -1.0
16 | 10 | -1.5
17 | -2 | 1.8
18 | 2 | 1.9
19 | 2 | -1.4
20 | -4 | -0.3
21 | -19 | 10
22 | 4 | -1.9
23 | -3&-1 | 1.4&0.1
24 | 15 | 2.2

(continued)
item | canonical_smiles | FGF22 binding | Ecoli rRNA inh
25 | C[C@H](CO)N1C[C@H](C)[C@H](CN(C)Cc2ccccc2C(=O)O)Oc2ncc(C3=CCCCC3)cc2C1=O | i | 2
26 | OC[C@@H]1[C@@H](c2ccccc2)C2(CN(Cc3nccs3)C2)N1Cc1ccccc1 | i | -3
27 | C[C@@H]1CN([C@@H](C)CO)C(=O)c2cc(/C=C/c3ccccc3)cnc2O[C@H]1CN(C)S(=O)(=O)c1cccs1 | i | -3
28 | C[C@@H]1CN([C@@H](C)CO)C(=O)c2cc(N(C)C)ccc2O[C@H]1CN(C)Cc1ccccc1 | i | 2
29 | O=C([C@H]1[C@H](CO)[C@H]2Cn3c(ccc(-c4ccc(F)cc4)c3=O)[C@H]2N1Cc1cocn1)N1CCCCC1 | i | 1
30 | COc1ccc(NC(=O)N(C)C[C@@H]2Oc3ncc(C#Cc4ccc(OC)c(OC)c4)cc3C(=O)N([C@H](C)CO)C[C@@H]2C)cc1 | i | -6
31 | C[C@H]1CCCCO[C@@H](CN(C)C(=O)Nc2ccc(C(F)(F)F)cc2)[C@@H](C)CN([C@@H](C)CO)C(=O)c2cc(NC(=O)Cc3ccccc3)ccc2O1 | i | 2
32 | COCCNC(=S)N(C)[C@H]1C[C@H]2c3[nH]c4c(-c5ccccc5)cccc4c3CCN2C[C@H]1[C@H](C)O | i | -48
33 | COc1ccc(S(=O)(=O)N(C)C[C@@H]2Oc3ncc(Br)cc3C(=O)N([C@H](C)CO)C[C@@H]2C)cc1 | i | 0
34 | OC[C@H]1[C@H](c2ccccc2)C2(CN(Cc3cccnc3)C2)N1Cc1ccncc1 | i | 4
35 | Cc1noc(C)c1NC(=O)N(C)C[C@@H]1Oc2ncc(C#CC3CCCCC3)cc2C(=O)N([C@H](C)CO)C[C@H]1C | i | 0
36 | C[C@@H]1CN([C@H](C)CO)C(=O)c2cc(N(C)C)ccc2O[C@H]1CN(C)Cc1ccc(C(F)(F)F)cc1 | i | -4

item | Ecoli rRNA inh OD600 | Ecoli rRNA inh RFP
25 | -2 | 1.9
26 | -5 | 2.8
27 | -3 | 0.4
28 | -1 | 1.1
29 | 0 | -0.2
30 | -3 | 0.6
31 | 8 | -2.0
32 | -82 | -17
33 | -1 | 1.0
34 | 2 | 2.0
35 | -5 | 1.6
36 | 1 | -2.5

Bioassay records from PubChem.
